Vaccinia stage: Vaccinia orthopox stage-specific inhibition; activity change (mCherry), % (no concentration beside the values); Vaccinia-infected cells, mCherry/Venus stage reporter fluorescence; stronger effect = lower value; some inactives read as strong as hits; hit rate 0.01% among 89,000; AID 1053133;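 active = mCherry past -33% and 40 or more points under the early reporter, replicates agreeing; inconclusive = past -33% without that gap or agreement; tested in A549 cells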;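 note: scaled between vehicle wells and reference inhibitor wells; 23 nL library stock went into each well; one replicate is shown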
Vaccinia stage Venus: second read-out of Vaccinia stage, no call of its own (marks repeat the call); activity change (Venus), %; measured here: Venus reporter, other viral stage;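 negative = less Venus signal; first of two replicates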
* = called active by the depositor; ? = inconclusive; . = no result given.

SMILES	Vaccinia stage	Vaccinia stage Venus
CO[C@@H]1CN(C)C(=O)c2ccc(NS(C)(=O)=O)cc2OC[C@@H](C)N(C(=O)C2CCCC2)C[C@@H]1C	5	-2
CCC(=O)N(C)C[C@@H]1Oc2cc(Br)ccc2S(=O)(=O)N([C@@H](C)CO)C[C@H]1C	9	3
O=C(C1CCCCC1)N1CC(=O)N2[C@@H](CO)[C@H](c3ccc(-c4ccccc4F)cc3)[C@@H]2C1	-23	-17
C[C@@H]1CN([C@@H](C)CO)C(=O)c2cc(NC(=O)c3ccncc3)ccc2O[C@@H](C)CCCCO[C@@H]1CN(C)C(=O)c1ccncc1	13	7
CN(C)CC(=O)N[C@@H]1C=C[C@H](CC(=O)NCCN2CCCCC2)O[C@@H]1CO	-10	3
COCC(=O)N1[C@H](CO)[C@@H](c2ccc(-c3cccc(F)c3)cc2)[C@@H]1C#N	3	-10
C[C@H](CO)N1C[C@H](C)[C@H](CN(C)C(=O)NC2CCCCC2)OCc2ccccc2-c2c(n(C)c3ccccc23)C1=O	?	.
COc1ccccc1NC(=O)N[C@@H]1CC[C@H](CCNC(=O)Cc2ccccn2)O[C@H]1CO	21	15
O=C(C[C@H]1C[C@@H]2c3cc(NC(=O)C4CCOCC4)ccc3O[C@@H]2[C@@H](CO)O1)NCc1cccc(F)c1	4	-6
CC=Cc1ccc2n(c1=O)C[C@H]1[C@H](CO)[C@@H](C(=O)NCC3CC3)[C@@H]2N1Cc1ccccc1F (mixture of isomers)	1	-1
COc1ccc(-c2cnc3c(c2)C(=O)N([C@H](C)CO)C[C@H](C)[C@@H](CN(C)C(=O)C2CCOCC2)O3)cc1	12	3
C/C=C/c1cnc2c(c1)C(=O)N([C@@H](C)CO)C[C@H](C)[C@H](CN(C)C(=O)c1ccc3c(c1)OCO3)O2	22	15
O=C(N[C@@H]1CC[C@H](CC(=O)N2CCOCC2)O[C@@H]1CO)c1cccc(F)c1	4	6
COCCNC(=O)C[C@@H]1C[C@@H]2c3cc(NS(C)(=O)=O)ccc3O[C@@H]2[C@@H](CO)O1	13	11
C[C@@H]1CN([C@@H](C)CO)C(=O)c2cc(NC(=O)Nc3ccc(C(F)(F)F)cc3)ccc2O[C@H]1CN(C)Cc1ccc2c(c1)OCO2	?	.
CCCC#Cc1ccc([C@@H]2[C@H](CO)N3CCCCN(C(=O)NC4CCCC4)C[C@@H]23)cc1	?	.
C[C@@H]1CN([C@H](C)CO)C(=O)c2cc(-c3cccc(C(=O)N(C)C)c3)cnc2O[C@H]1CN(C)C(=O)Cc1ccccn1	12	7
CCCNC(=O)N(C)C[C@@H]1Oc2ncc(C3=CCCCC3)cc2C(=O)N([C@@H](C)CO)C[C@H]1C	1	-2
C[C@@H]1CN([C@H](C)CO)C(=O)Cc2cc(NC(=O)Cc3cn(C)c4ccccc34)ccc2O[C@H]1CN(C)S(C)(=O)=O	17	7
C[C@H]1CN([C@@H](C)CO)C(=O)c2cc(NC(=O)CCCN(C)C)ccc2O[C@H]1CN(C)CC1CCCCC1	18	8

Arranged by formula weight (largest number first): 3 of the compounds above
SMILES	Vaccinia stage	Vaccinia stage Venus
C[C@@H]1CN([C@@H](C)CO)C(=O)c2cc(NC(=O)Nc3ccc(C(F)(F)F)cc3)ccc2O[C@H]1CN(C)Cc1ccc2c(c1)OCO2	?	.
C/C=C/c1cnc2c(c1)C(=O)N([C@@H](C)CO)C[C@H](C)[C@H](CN(C)C(=O)c1ccc3c(c1)OCO3)O2	22	15
O=C(N[C@@H]1CC[C@H](CC(=O)N2CCOCC2)O[C@@H]1CO)c1cccc(F)c1	4	6

Remaining list, next part:
SMILES	Vaccinia stage	Vaccinia stage Venus
C[C@H]1CN([C@@H](C)CO)C(=O)c2cc(NC(=O)Cc3ccccc3)ccc2O[C@H]1CN(C)C(=O)Nc1cccc2ccccc12	6	10
O=C(C[C@@H]1C=C[C@H](NS(=O)(=O)c2ccc(F)cc2)[C@H](CO)O1)N1CCC(Cc2ccccc2)CC1	5	-4
CO[C@@H]1CN(C)C(=O)c2cc(NS(C)(=O)=O)ccc2OC[C@H](C)N(Cc2nccs2)C[C@H]1C	9	0
C[C@H]1CN([C@@H](C)CO)C(=O)c2cccc(NC(=O)c3cnccn3)c2O[C@H]1CN(C)C(=O)Nc1ccccc1	9	6
O=C(C[C@@H]1C=C[C@@H](NS(=O)(=O)c2ccccc2)[C@@H](CO)O1)NCc1ccncn1	19	6
CCN1[C@@H]2c3ccc(-c4ccccc4F)c(=O)n3C[C@@H]2[C@@H](CO)[C@@H]1C(=O)NC1CCCC1	4	7
O=C(C[C@H]1C[C@@H]2c3cc(NS(=O)(=O)c4ccc(F)cc4)ccc3O[C@@H]2[C@@H](CO)O1)NC1CCCCC1	-13	-20
COCCNC(=O)C[C@H]1C[C@H]2c3cc(NC(=O)COC)ccc3O[C@H]2[C@@H](CO)O1	24	15
Cc1noc(C)c1NC(=O)N(C)C[C@@H]1OCCCC[C@H](C)Oc2ccc(NC(=O)Nc3ccc(F)cc3)cc2C(=O)N([C@@H](C)CO)C[C@@H]1C	19	15
CS(=O)(=O)N1CCCCN2[C@@H](CO)[C@@H](c3ccc(C4=CCCC4)cc3)[C@@H]2C1	19	5
COc1cccc(NC(=O)N2[C@@H](CO)[C@H](c3ccccc3)[C@@H]2CNCC(C)C)c1	-13	-10
CCC(=O)N(C)C[C@H]1Oc2cc(C#CC3CCCC3)ccc2S(=O)(=O)N([C@@H](C)CO)C[C@@H]1C	?	.
CC(C)NC(=O)N(C)C[C@H]1Oc2ccc(NS(=O)(=O)c3ccc(Cl)cc3)cc2C(=O)N([C@H](C)CO)C[C@@H]1C	7	12
C[C@@H]1CN([C@H](C)CO)C(=O)Cc2cc(NC(=O)CCN3CCOCC3)ccc2O[C@@H]1CN(C)S(C)(=O)=O	-3	-4
CN(C)CC#Cc1ccc([C@@H]2[C@@H](CO)N3CCCCN(C(=O)Nc4ccc(F)cc4)C[C@@H]23)cc1	-3	-5
CO[C@@H](CN(C)C(=O)C1CCOCC1)[C@H](C)CN(C(=O)Nc1ccc(C(F)(F)F)cc1)[C@@H](C)CO	1	3
C[C@H]1CCCCO[C@H](CN(C)C(=O)NC2CCCCC2)[C@@H](C)CN([C@@H](C)CO)C(=O)c2cc(NC(=O)C3CCCCC3)ccc2O1	?	.
C[C@@H]1CN([C@H](C)CO)C(=O)Cc2cc(NS(=O)(=O)c3ccc(Cl)cc3)ccc2O[C@H]1CN(C)Cc1ccc(Oc2ccccc2)cc1	?	.
O=C(C1CC1)N1[C@H](CO)[C@@H]2c3ccccc3N(S(=O)(=O)c3ccccc3)C[C@@H]21	13	11
COc1ccc(NC(=O)N(C)C[C@@H]2OCc3ccccc3-c3ccccc3C(=O)N([C@H](C)CO)C[C@@H]2C)c(OC)c1	10	13
CCCC(=O)Nc1ccc2c(c1)OC[C@@H](C)N(Cc1ccncc1)C[C@@H](C)[C@@H](OC)CN(C)C2=O	-3	-6
O=C(C[C@@H]1C[C@H]2c3cc(NC(=O)CC4CC4)ccc3O[C@H]2[C@@H](CO)O1)NCc1ccc2c(c1)OCO2	5	-8
CO[C@H]1CN(C)C(=O)c2ccc(NC(=O)C3CCC3)cc2OC[C@@H](C)N(C)C[C@@H]1C	12	5
CC(C)NC(=O)N1[C@H](C(=O)N2CCC(Cc3ccccc3)CC2)[C@@H](CO)[C@@H]2Cn3c(cccc3=O)[C@@H]21	5	10
CCCN1[C@@H]2c3ccc(-c4cccnc4)c(=O)n3C[C@H]1[C@H](CO)[C@H]2C(=O)NCCc1cn(C)cn1	13	13
CN(C)C(=O)c1ccc(-c2cccc(-c3nc(C(=O)NC4CCC4)cc4c3[C@H](CCO)N([S@@](=O)C(C)(C)C)C4)c2)cc1	-9	7
C[C@H](CO)N1C[C@H](C)[C@@H](CN(C)S(=O)(=O)c2ccc(F)cc2)Oc2ccc(NC(=O)CCN3CCOCC3)cc2CC1=O	-4	1
COc1ccccc1-c1cn(CC[C@H]2CC[C@H](NC(=O)c3cnccn3)[C@H](CO)O2)nn1	-8	-3
CN(C)CC(=O)N[C@@H]1CC[C@H](CCn2cc(CN(C)C)nn2)O[C@H]1CO	13	5
C[C@H](CO)N1C[C@H](C)[C@@H](CN(C)C(=O)Nc2ccc(F)cc2)Oc2ccc(NS(=O)(=O)c3ccccc3)cc2CC1=O	17	5
C[C@@H]1CN([C@@H](C)CO)C(=O)c2cccc(NS(=O)(=O)c3ccccc3)c2O[C@@H]1CN(C)Cc1ccc(C(=O)Nc2ccccc2N)cc1	-35	-28
CCNC(=O)C[C@H]1CC[C@@H]2[C@H](COC[C@@H](O)CN2Cc2ccc(Cl)c(Cl)c2)O1	7	-1
CC(C)NC(=O)Nc1ccc2c(c1)C(=O)N([C@@H](C)CO)C[C@H](C)[C@@H](CN(C)S(=O)(=O)c1ccc(F)cc1)O2	-1	9
CC(C)C#Cc1ccc2c(c1)O[C@@H](CN(C)CC1CCOCC1)[C@H](C)CN([C@@H](C)CO)S2(=O)=O	?	.
C[C@@H]1CCCCO[C@H](CN(C)CC2CC2)[C@H](C)CN([C@@H](C)CO)C(=O)c2cc(NC(=O)Nc3ccccc3)ccc2O1	-21	-16
COc1ccccc1C#Cc1ccc2c(c1)O[C@@H](CN(C)Cc1ccccc1)[C@H](C)CN([C@@H](C)CO)S2(=O)=O	-15	-3
C[C@@H]1CCCCO[C@H](CN(C)S(=O)(=O)c2ccc(Cl)cc2)[C@@H](C)CN([C@H](C)CO)C(=O)c2cc(NS(=O)(=O)c3ccccc3)ccc2O1	5	0
CC(C)NC(=O)N[C@H]1CC[C@@H](CC(=O)NCc2ccc(Oc3ccccc3)cc2)O[C@H]1CO	-20	-7
C[C@@H]1CN([C@H](C)CO)C(=O)c2ccccc2-c2ccccc2CO[C@@H]1CN(C)C(=O)c1ccncc1	28	11
Cc1ccc(S(=O)(=O)N(C)C[C@H]2OCCCC[C@H](C)Oc3ccc(NC(=O)Cc4ccccc4)cc3C(=O)N([C@@H](C)CO)C[C@@H]2C)cc1	0	-8
C[C@@H]1CN([C@H](C)CO)C(=O)c2cccc(NS(=O)(=O)c3ccc(F)cc3)c2O[C@@H]1CN(C)C(=O)Nc1ccc(C(F)(F)F)cc1	?	.
O=C(NCC[C@H]1CC[C@@H](NS(=O)(=O)Cc2ccccc2)[C@@H](CO)O1)C1CCOCC1	2	4
C[C@H](NC(=O)C[C@H]1CC[C@H]2[C@H](COc3ccc(NC(=O)C4CCOCC4)cc3C(=O)N2C)O1)c1ccccc1	3	-3
CN(C)C(=O)c1ccc(-c2ccccc2[C@@H]2[C@@H](CO)N(C(=O)C3CCCC3)[C@H]2C#N)cc1	5	5
CO[C@H]1CN(C)C(=O)c2ccc(NC(=O)C3CCCC3)cc2OC[C@H](C)N(C(C)=O)C[C@@H]1C	24	19
CS(=O)(=O)Nc1ccc2c(c1)[C@H]1C[C@@H](CC(=O)NCC3CC3)O[C@H](CO)[C@H]1O2	4	0
COCCN(C[C@@H]1N[C@@H](CO)[C@H]1c1ccc(-c2cccc(F)c2)cc1)C(C)=O	-11	-1
CCCNC(=O)C[C@@H]1C[C@@H]2c3cc(NS(C)(=O)=O)ccc3O[C@@H]2[C@@H](CO)O1	10	5
C[C@@H]1CCCCO[C@@H](CN(C)Cc2ccncc2)[C@@H](C)CN([C@@H](C)CO)C(=O)c2cc(NS(=O)(=O)c3ccccc3)ccc2O1	-4	-14
COc1ccc(NC(=O)Nc2ccc3c(c2)C(=O)N([C@@H](C)CO)C[C@H](C)[C@@H](CN(C)S(=O)(=O)c2ccc(Cl)cc2)OCCCC[C@@H](C)O3)cc1	5	-7
Other results.
SMILES	Vaccinia stage	Vaccinia stage Venus
CN1[C@@H]2c3ccc(C4=CCCC4)c(=O)n3C[C@@H]2[C@@H](CO)[C@@H]1C(=O)NCc1ccccc1F	17	13
CO[C@@H](CN(C)C(=O)c1cnccn1)[C@H](C)CN([C@@H](C)CO)S(=O)(=O)c1ccccc1	12	9
Cc1noc(C)c1S(=O)(=O)Nc1ccc2c(c1)CC(=O)N([C@@H](C)CO)C[C@@H](C)[C@@H](CN(C)CC1CCCCC1)O2	4	4
CCNC(=O)Nc1ccc2c(c1)C(=O)N(C)[C@@H]1CC[C@@H](CC(=O)Nc3ccccc3)O[C@@H]1CO2	6	5
COc1ccc2c3c([nH]c2c1)[C@@H](CO)N(Cc1ccccc1F)CC31CCN(C(=O)C2CC2)CC1	-3	-10
C[C@@H](NC(=O)C[C@@H]1CC[C@@H]2[C@H](COC[C@@H](O)CN2C(=O)Nc2cc(Cl)cc(Cl)c2)O1)c1ccccc1	?	.

Filtered by structure, those above containing an aryl methoxy group (8)
SMILES	Vaccinia stage	Vaccinia stage Venus
COc1ccccc1NC(=O)N[C@@H]1CC[C@H](CCNC(=O)Cc2ccccn2)O[C@H]1CO	21	15
COc1ccc(-c2cnc3c(c2)C(=O)N([C@H](C)CO)C[C@H](C)[C@@H](CN(C)C(=O)C2CCOCC2)O3)cc1	12	3
COc1cccc(NC(=O)N2[C@@H](CO)[C@H](c3ccccc3)[C@@H]2CNCC(C)C)c1	-13	-10
COc1ccc(NC(=O)N(C)C[C@@H]2OCc3ccccc3-c3ccccc3C(=O)N([C@H](C)CO)C[C@@H]2C)c(OC)c1	10	13
COc1ccccc1-c1cn(CC[C@H]2CC[C@H](NC(=O)c3cnccn3)[C@H](CO)O2)nn1	-8	-3
COc1ccccc1C#Cc1ccc2c(c1)O[C@@H](CN(C)Cc1ccccc1)[C@H](C)CN([C@@H](C)CO)S2(=O)=O	-15	-3
COc1ccc(NC(=O)Nc2ccc3c(c2)C(=O)N([C@@H](C)CO)C[C@H](C)[C@@H](CN(C)S(=O)(=O)c2ccc(Cl)cc2)OCCCC[C@@H](C)O3)cc1	5	-7
COc1ccc2c3c([nH]c2c1)[C@@H](CO)N(Cc1ccccc1F)CC31CCN(C(=O)C2CC2)CC1	-3	-10

This is a subset; count on the stated rates, not on these rows.
